# Sa growth 42C: S. aureus growth inhibition at 42 and 30 °C, primary screen, LtaS inhibitor project, RN4220, two temperatures; relative growth, % (test concentration not listed); OD600, 20 h, 42 °C; stronger effect = lower value; AID 720641, 2013; 0.53% of 170,000 active;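 active means growth at 42 °C up to 50% and 20 or more points under that at 30 °C, or under 10% at both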;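 further: 300 nL library stock went into each well; scaled to the means of positive and negative controls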
# HCMV UL50-53 inh: inhibitors of HCMV UL50-UL53 interaction, biochemical, HTRF; 0.15% of 190,000 active; inhibition, % (no concentration beside the values); normalized percent inhibition;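 active means both replicates at 50% or more, plus weaker picks with an unusually low signal ratio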;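 further: stock transfer was 100 nL into about 20 µL; 0% = negative control wells and 100% = wells with untagged competitor protein; inactives centre near -12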
# GIV-Gai inh: inhibitors of GIV peptide binding to Galpha-i3, primary screen, biochemical, fluorescence polarization, FITC-GIV GBA peptide, rat Galphai3; AID 1224905, 2016; percent of control (FP), % (test concentration not listed); 90 min; stronger effect = lower value; scaled: aluminum fluoride 0%, vehicle 100%; Guanine nucleotide-binding protein G(i) subunit alpha-3 (Rattus norvegicus), P08753; 0.42% of 210,000 active;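 active means replicate mean at 85% of control or lower, very high polarization wells dropped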;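 further: wells of about 15 µL received 100 nL stock; the first replicate is given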
# Target sequence (P08753 whole entry, looked up): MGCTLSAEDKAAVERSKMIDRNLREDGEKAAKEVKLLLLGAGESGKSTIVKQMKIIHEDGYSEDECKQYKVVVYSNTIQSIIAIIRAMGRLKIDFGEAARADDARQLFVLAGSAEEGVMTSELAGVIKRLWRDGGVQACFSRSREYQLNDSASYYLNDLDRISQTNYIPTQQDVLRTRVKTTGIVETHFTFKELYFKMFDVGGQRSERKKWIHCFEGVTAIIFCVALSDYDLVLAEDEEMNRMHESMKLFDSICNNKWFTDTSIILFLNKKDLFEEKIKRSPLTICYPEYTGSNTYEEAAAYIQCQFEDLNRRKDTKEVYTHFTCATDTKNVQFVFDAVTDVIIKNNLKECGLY
# Sa growth 42C second temp: also measured in Sa growth 42C; calls as there; relative growth, %; measured here: growth at 30 °C;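 optical density after 20 h as mean of two plates; 100% = untreated growth and lower means inhibition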
# * hit, by the source's call; x = no result given; & = joins results of further samples. Not a hit list; overall some 0.79% were active at least once.
# Preview, four compounds:
SMILES,Sa growth 42C,Sa growth 42C second temp,HCMV UL50-53 inh,GIV-Gai inh
CC(C)c1nn2c(=O)cc(COC(=O)c3cccc(NC(=O)CCc4ccccc4)c3)nc2s1,93.8,83.5,x,102.7
Cc1ccc(NC(=O)CN2CCN(C3CCCCC3)C(=O)C2=O)cc1C,101.9,92.7,x,99.9
COc1ccc(NC(=O)CN2C(=O)COc3ccc(S(=O)(=O)N4CCCCCC4)cc32)cc1,104.3,85.0,x,96.9
O=C(CSc1nc(=O)n(Cc2ccccn2)c2c1CCC2)Nc1cccc(Cl)c1,111.4,67.9,x,104.4

# The listing, previewed entries included:
SMILES,Sa growth 42C,Sa growth 42C second temp,HCMV UL50-53 inh,GIV-Gai inh
CC(C)c1nn2c(=O)cc(COC(=O)c3cccc(NC(=O)CCc4ccccc4)c3)nc2s1,93.8,83.5,x,102.7
Cc1ccc(NC(=O)CN2CCN(C3CCCCC3)C(=O)C2=O)cc1C,101.9,92.7,x,99.9
COc1ccc(NC(=O)CN2C(=O)COc3ccc(S(=O)(=O)N4CCCCCC4)cc32)cc1,104.3,85.0,x,96.9
O=C(CSc1nc(=O)n(Cc2ccccn2)c2c1CCC2)Nc1cccc(Cl)c1,111.4,67.9,x,104.4
Cc1cccc(NC(=O)C(=O)c2cc(C)n(-c3ccccc3)c2C)c1C,112.6,105.4,-8.1,106.0
CCC(C)n1nnc2cc(S(=O)(=O)N(C)CC(=O)NCCc3c[nH]c4ccccc34)ccc21 (stereo unspecified),x,x,-15.7,107.7
COc1ccc(N2C(N)=C(C#N)C(c3ccc(O)c(OC)c3)C3=C2CCCC3=O)cc1 (stereo unspecified),112.2,90.1,-13.9,102.9
COCc1nnc(C(=O)Nc2cccc(C(=O)NCCc3c[nH]c4ccc(OC)cc34)c2)s1,x,x,-15.4,105.2
C=CCOc1ccc(C(=O)N2CCOCC2)cc1,99.0,77.9,-15.1,103.5
CCOC(=O)c1c(C)[nH]c(N=Nc2ccccc2)c1C,18.1,33.4,-6.4,x
O=C(Nc1nc2ccc(Cl)cc2s1)c1ccc(S(=O)(=O)N2CCCC2)cc1,98.8,100.9,x,106.0
CCC(C)OC(=O)C1=C(C)NC2=C(C(=O)CC(c3ccc(OC)cc3)C2)C1c1ccc(OC)c(OC)c1 (stereo unspecified),x,x,-8.1,108.3

# Some values from the results shown.
# GIV-Gai inh result of O=C(Nc1nc2ccc(Cl)cc2s1)c1ccc(S(=O)(=O)N2CCCC2)cc1 reads 106.0
# HCMV UL50-53 inh result of CCC(C)n1nnc2cc(S(=O)(=O)N(C)CC(=O)NCCc3c[nH]c4ccccc34)ccc21 (stereo unspecified) reads -15.7
# Sa growth 42C second temp result of COc1ccc(NC(=O)CN2C(=O)COc3ccc(S(=O)(=O)N4CCCCCC4)cc32)cc1 reads 85.0
# GIV-Gai inh result of CC(C)c1nn2c(=O)cc(COC(=O)c3cccc(NC(=O)CCc4ccccc4)c3)nc2s1 reads 102.7

# Next part:
SMILES,Sa growth 42C,Sa growth 42C second temp,HCMV UL50-53 inh,GIV-Gai inh
Oc1ccccc1CNCc1ccccn1,107.7,75.3,x,98.5
COC(=O)c1ccc(OC2OCCOC2Oc2ccc(C(=O)OC)cc2)cc1 (stereo unspecified),94.6,96.1,6.6,113.5
Cc1cc(I)ccc1NC1CCOC1=O (stereo unspecified),120.5,90.3,-3.6,x
CCc1cccc(NC(=O)Cn2nc(-c3ccc(OC)cc3)ccc2=O)c1,122.1,91.7,x,102.5
Cc1cnc(C(=O)OCC(=O)c2c[nH]c3ccccc23)cn1,100.5,87.2,-41.8,x
CCc1ccccc1NC(=O)c1cnc2sc(N3CCOCC3)nn2c1=O,107.7,100.0,x,99.9
O=C(CSc1nc2c(c(=O)[nH]1)CN(Cc1ccc3c(c1)OCO3)CC2)Nc1ccccc1Cl,103.2,88.7,-23.9,103.0
CS(=O)(=O)N1CCn2c(nc3ccccc32)C1,112.6,103.8,2.7,97.6
COc1ccc(-c2nnc(SCC(=O)Oc3cccc(C)c3C)o2)cc1,86.6,87.1,-21.6,104.6
CC(OC(=O)c1cc(Cl)c(O)c(Cl)c1)C(=O)N1CCCCC1 (stereo unspecified),98.8,100.0,-28.1,x
COc1cccc(CNC(=O)c2ccc(-c3nc(CS(=O)(=O)c4ccccc4)c(C)o3)cc2)c1,106.4,94.8,x,104.7
O=C1c2ccc(F)cc2C(=O)N1C1CCCCCCC1,91.5,88.7,-1.7,x

# Two compounds drawn at random from the list so far:
SMILES,Sa growth 42C,Sa growth 42C second temp,HCMV UL50-53 inh,GIV-Gai inh
CC(OC(=O)c1cc(Cl)c(O)c(Cl)c1)C(=O)N1CCCCC1 (stereo unspecified),98.8,100.0,-28.1,x
CS(=O)(=O)N1CCn2c(nc3ccccc32)C1,112.6,103.8,2.7,97.6

# (more compounds)
SMILES,Sa growth 42C,Sa growth 42C second temp,HCMV UL50-53 inh,GIV-Gai inh
CN(C)c1nc(N(C)C)nc(N(C)C)n1,87.3&69.2&97.0,82.1&59.4&87.5,-37.0&-45.9&-3.3&-7.0&-13.6&-57.2&-7.2,107.5&95.3&105.2
O=S(=O)(NCc1ccco1)c1ccccc1,x,x,-7.4,102.9
CCc1ccc(NC(=O)c2cc3c(=O)oc4ccccc4c3s2)cc1,103.0,91.6,x,99.6
O=C1COc2ccc(S(=O)(=O)N3CCCC3C(=O)Nc3cccc(Cl)c3)cc2N1 (stereo unspecified),x,x,-23.4,106.8
COc1ccc(-c2cc3c(SCC(=O)NC4CCCCC4)nccn3n2)cc1,x,x,-19.8,100.4
Cc1ccc(-c2cc3ccccn3c2)cc1,108.0,85.4,x,112.7
CCOC(=O)C1CCN(C(c2cccc(Cl)c2)c2c(NC(C)=O)sc3c2CCCC3)CC1 (stereo unspecified),112.0,94.6,x,102.4
Cn1c(C(=O)NCc2ccccc2)cc2oc3ccccc3c21,97.5,78.9,x,102.1
CCc1ccc(CNC(=O)COc2cc(=O)n(C)c3ccccc23)cc1,91.7,92.4,x,103.0
CCN(C(=O)Cn1cnc2onc(-c3ccc(F)cc3)c2c1=O)c1cc(C)ccc1C,89.3,91.3,x,105.4
Cn1ccc2c(OCC(=O)NCc3ccc(F)cc3)cccc2c1=O,115.1,87.6,x,97.3
O=C(/C=C/c1cccs1)Nc1cccc(C(F)(F)F)c1,134.9,85.6,-22.0,x
CN(C)S(=O)(=O)c1cccc(C(=O)Oc2ccc3c(c2)OCO3)c1,79.0,80.0,-33.5,x
Nc1c(C(=O)Nc2ccc(S(N)(=O)=O)cc2)sc2nc3c(cc12)CCCCC3,x,x,-17.4,99.0
COc1ccc(-c2c(C)nn3c(N)c(C#N)cnc23)cc1OC,86.3,90.2,-28.1,109.5
COc1ccc(-c2cc(-c3ccccc3)nc(SCC#N)c2C#N)cc1,x,x,26.2,103.8
Cc1cccc(C(=O)Nc2ccc(-c3nc4ncccc4o3)cc2C)c1,89.9,91.4,x,99.5
O=C1CCS(=O)(=O)N1c1ccc(S(=O)(=O)Nc2ccc(N3CCCC3)cc2)cc1,x,x,-32.0,109.5
Clc1ccc2nc(-c3ccc(Br)cc3)cn2c1,x,x,-21.0,98.1
C=C(C)Cc1c(C)nc(N)[nH]c1=O,100.9&101.1,73.1&85.8,-11.9&-6.3,97.9&98.3
CC(C)OCCCn1c(=O)c2ccccc2n2c(-c3ccc(F)cc3)nnc12,95.1,91.9,4.0,102.7
O=C(CSc1ccccn1)N(C1CCCCC1)C1CCS(=O)(=O)C1 (stereo unspecified),92.1,81.7,-29.5,x
Cc1ccc(C)n1-c1sc2c(c1C#N)CCCC2,103.3,93.8,0.2,x
Cc1onc(-c2c(Cl)cccc2Cl)c1CC#N,89.3,85.3,-10.8,91.8
O=C(OCC(=O)N1CCCCC1)c1c(Cl)cccc1Cl,100.4,85.3,-7.0,x
O=c1[nH]c2ccc(Cl)cc2c(-c2ccccc2)c1N1CCN(CCO)CC1,92.7,90.7,-13.9,x
CSc1ncc(Cl)c(C(=O)Nc2nc3ccc(F)cc3s2)n1,105.0,89.2,-14.6,99.9
CNC(=S)NCCc1cc2c(OC)ccc(OC)c2[nH]c1=O,87.0,82.6,-46.0,107.1
Cc1ccc(C(=O)NCC(c2ccco2)N2CCCC2)cc1 (stereo unspecified),80.8,81.7,-12.2,102.4
O=c1c2cccnc2n(Cc2cccc(F)c2)c(=O)n1CCc1c[nH]c2ccccc12,100.6,85.8,1.9,101.5
Cc1cccc(C)c1NC(=O)CCS(=O)(=O)c1ccc2c(c1)CC(C)N2C(=O)C1CC1 (stereo unspecified),83.2,78.6,x,101.2
COc1ccc(-c2csc(-c3cc4c([nH]c3=O)CC(c3ccc(OC)cc3)CC4=O)n2)cc1 (stereo unspecified),x,x,-11.4,107.2
Cc1ccc(NC(=O)c2sc(-n3nc(C)c(CCC(C)C)c3C)nc2C)cc1C,96.7,88.7,0.1,97.8
COC(=O)Nc1c(C)n(C)n(-c2ccccc2)c1=O,89.6,82.0,-15.4,x
Cc1ccc(C(=O)N2CCC(c3nc4c(nnn4Cc4ccccc4C)c(=O)[nH]3)CC2)cc1,x,x,3.9,107.1
CC(=O)c1ccc(NC(=O)CCc2c(C)nn(-c3ccc(N4CCCCC4)nn3)c2C)cc1,82.0,88.0,x,97.9
CN1CCN(c2ccc(NC(=O)c3ccccc3Cl)c(C(=O)O)c2)CC1,x,x,-33.3,100.0
CN(C)S(=O)(=O)c1ccc(/C(O)=C2\C(=O)C(=O)N(Cc3cccnc3)C2c2ccco2)cc1 (stereo unspecified),94.9,75.9,-73.3,99.1
COc1cc(OC)c(NC(=O)c2c(N3CCCC3=O)c3cc(C)ccc3n2C)cc1Cl,109.1,89.0,x,105.4
CC(=O)N(Cc1nc(-c2ccccc2)no1)C(C)C,97.6,80.2,-6.8,99.9
Cc1ccc(S(=O)(=O)N2CCc3ccccc3C2)cc1C(N)=O,85.2,86.2,14.0,101.8
CC1(C)C(=O)N(CC(=O)Nc2ccc(F)c(Cl)c2)c2ccccc21,x,x,-19.8,97.2
O=C(Cn1c(=O)n(Cc2ccc(C(=O)NC3CCCC3)cc2)c(=O)c2ccccc21)c1ccccc1,120.9,88.3,x,101.7
Cc1c(Cl)cccc1NC(=O)C1CC2CCCC(C1)C2=O (stereo unspecified),97.9,96.7,-6.5,105.4
O=C(Nc1ccccc1)OCc1cc(-c2ccccc2)c(C(F)(F)F)s1,72.0,89.7,-10.1,103.5
Cc1ccccc1CNCc1cccnc1,95.6,88.7,-11.1,x
O=C(NCc1c(-n2cccc2)sc2c1CCCC2)Nc1cccc(C(F)(F)F)c1,119.2,77.8,-4.4,97.8
CCCN(CCC)CN1CC(Cn2c3ccccc3c3ccccc32)OC1=O (stereo unspecified),108.4,91.0,x,97.7
CC(=O)N1CCN=C1SCc1ccc(Br)cc1,82.7,85.1,-35.9,100.7
OC(CNCc1ccc(-c2ccc(Cl)cc2Cl)o1)c1ccccc1 (stereo unspecified),x,x,-19.3,105.6
FC(F)(F)c1cc(-c2ccccc2)nc2cc(-c3ccccc3)nn12,89.2,84.3,-29.3,106.7
CCCOc1ccc(OC(=O)c2sc3ncn(Cc4cccc(F)c4)c(=O)c3c2C)cc1,83.9,89.6,x,101.7
OCC1(C2=NOC(O)(C(F)(F)F)C2)CCCCC1 (stereo unspecified),99.8,91.8,-7.4,x
O=C(Nc1ccc2c(c1)OCO2)c1cc2n(n1)C(C(F)(F)F)CC(c1ccc(Cl)c(Cl)c1)N2 (stereo unspecified),x,x,-21.6,94.8
CCN1CCN(C(=O)c2ccc(COc3ccc(Cl)cc3)o2)CC1,90.0,79.4,-2.5,104.6
COc1cc(OC)c(OC)cc1CNCCCSc1nnnn1C,103.3,82.1,-33.6,102.5
O=C(c1nc(-c2ccc(Cl)cc2)n2c1CCCCC2)N1CCN(c2ccccc2)CC1,124.1,99.0,x,108.8
CCCNC(=O)c1ccc(Cn2nc(-n3cccc3)c3c(C)cc(C)nc32)cc1,99.6,90.3,-27.3&-22.5,103.5&104.7
Cc1ccc(NC(=O)C(C)n2nc(-c3ccc(C)c(S(N)(=O)=O)c3)c3c(c2=O)CCCC3)cc1 (stereo unspecified),x,x,-24.8,112.2
O=C(CC1SC(=Nc2ccc(O)cc2)NC1=O)c1ccccc1 (stereo unspecified),106.4,88.8,-17.1,101.4

# Additional results follow:
SMILES,Sa growth 42C,Sa growth 42C second temp,HCMV UL50-53 inh,GIV-Gai inh
CCOCCCNC(=O)CCc1ccc(-n2cnc3cccnc32)cc1,x,x,-5.6,125.3
Cc1cccc(C)c1NC(=O)C(NC(=O)CC1NC(=O)NC1=O)c1ccccc1 (stereo unspecified),88.2,84.5,-28.7,103.8
CCC(C(=O)Nc1ccc(C(C)C)cc1)n1nc(C)n2c(cc3cc(C)ccc32)c1=O (stereo unspecified),103.1,81.2,-27.3,106.2
CCOC(=O)c1c(NC(=O)CSc2ncccn2)sc2c1CCC2,103.5,83.0,-3.4,x
CC1(C)CC(=O)C2=C(C1)Nc1onc(C(C)(C)C)c1C2c1ccc(O)cc1 (stereo unspecified),x,x,-6.4,99.6
Cc1ccc(C)c(NC(=O)Nc2cccc(-c3cn4cccnc4n3)c2)c1,109.2,93.4,-11.4,103.2
CCS(=O)(=O)N1CCC(c2nc3ccccc3s2)CC1,78.9,81.6,-13.7,98.5
CCOc1ccc(S(=O)(=O)Nc2ccc3c(c2)n(C)c(=O)n3C)cc1OCC,x,x,-13.5,104.2
Cc1oc(-c2ccc(C(=O)NCCCOC(C)C)cc2)nc1CS(=O)(=O)c1ccccc1,126.9,85.6,x,103.8
Cc1ccc(Oc2cc(C#N)c3ccccc3n2)c(-n2nc3ccccc3n2)c1,90.1,92.0,x,107.4
